# Sa RN4220 lethal – S. aureus RN4220 growth inhibition; 330,000 tested, 0.33% active; OD600, 16 h; inhibition, % (no concentration beside the values);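 active means z-score of -3 or lower and OD600 up to 0.18 on both plates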;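 further: plate controls were untreated cells for no effect and reference antibiotic for full effect; stock transfer was 100 nL into about 80 µL; one replicate is shown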
# PrP 5UTR inh – suppresses PrP 5' UTR mRNA reporter expression; cell-based PrP 5' UTR mRNA reporter, plate reader; inhibition, % (no concentration beside the values); 340,000 tested, 0.35% active; AID 488862;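 active means every replicate at 50% or more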;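 further: 0 = median of the neutral control wells; tested in H4 reporter cells; numbers are from one replicate; inactives centre near -14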
# Mtb hypoxia rep – inhibitors of hypoxia-regulated fluorescent reporter in Mycobacterium tuberculosis; M. tuberculosis hypoxia-regulated fluorescent reporter, fluorescence; fluorescence inhibition, % (concentration not given with the values); 300,000 tested, 0.1% active;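 active means 35 to 45% if threefold the growth effect, above 45% if 1.5-fold the growth effect; inactive means the rest, general growth blockers included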;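 further: wells of about 50 µL received 100 nL stock; 0% = vehicle wells and 100% = reference inhibitor wells; whole bacteria with a GFP reporter of the hypoxia response; strong numbers were not always called active; many hits fall short of the cut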
# BJeLR lethal – BJeLR cell viability loss | BJeLR (HRASV12) viability, CellTiter-Glo ATP luminescence, 48 h; reference of the scale not given here | inhibition, % (concentration not given with the values) | 300,000 tested, 0.17% active;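 active means replicate mean above 50%; inconclusive means above 50% but judged a plate artefact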;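 further: 50 nL library stock added to about 25 µL; numbers are from one replicate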
# Sa ugtP lethal – compounds lethal to S. aureus RN4220 ugtP deletion mutant; OD600 growth, 16 h; some inactives read as strong as hits; growth inhibition, % (no concentration beside the values); 330,000 tested, 0.54% active; AID 1259309;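 active means z-score under -3 and OD600 up to 0.15 on both plates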;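 further: plate controls were untreated wells for no effect and antibiotic for full effect; wells of about 80 µL received 100 nL stock; the first replicate is given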
# Bead autofluor – compound fluorescence in toxin protease inhibitor counterscreen | compound autofluorescence counterscreen, microsphere flow cytometry; hits give high values | fluorescence intensity (test concentration not listed) | 360,000 tested, 3.1% active | AID 624483;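 active means at least 3 SD above the mean of all compounds, about 16000 in these data; inconclusive means too few beads counted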;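 further: 100 nL of 1 mM stock went into each well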
# Mtb hypoxia rep growth – also measured in Mtb hypoxia rep; calls as there; growth inhibition, %; measured here: M. tuberculosis growth (absorbance);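 0% = vehicle and 100% = reference antibiotic; read after six days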
# An asterisk follows results filed as active; u = inconclusive; x = not tested or not shown.
SMILES,Sa RN4220 lethal,PrP 5UTR inh,Mtb hypoxia rep,Mtb hypoxia rep growth,BJeLR lethal,Sa ugtP lethal,Bead autofluor
CCOC(=O)CNC(=O)C1CCCc2c1[nH]c1ccc(Cl)cc21 (centres undefined),7.0,-24,5,-2,2,14,2726
CCCC[C@@H]1C[C@H]1[C@@H](NC(=O)c1ccccc1)c1ccccc1C(F)(F)F,x,-18,x,x,3,x,3999
CCOC(=O)C1(CC2CCCCO2)CCN(S(=O)(=O)c2ccc(OC)cc2)CC1 (centres undefined),3.1,-48,-2,1,1,4,4232
Cc1noc(C)c1C(=O)Nc1nc(-c2ccccc2Cl)cs1,6.2,-60,8,10,1,-7,7821
Cc1c(C(=O)NCCCN2CCCC2=O)oc2ccc(S(=O)(=O)N3CCOCC3)cc12,7.8,-21,17,7,x,6,4267
Cc1ccc2nsnc2c1S(=O)(=O)N1CCCC1,-7.3,-2,19,9,11,-6,2453
CCOc1ccc(NC(=S)NN(C)C(=S)Nc2ccc(OCC)cc2)cc1,5.0,4,11,24,8,20,2425
Cc1ccccc1COn1nnc2ccc(S(=O)(=O)N3CCOCC3)cc21,5.7,4,-7,-2,4,0,u
COc1c(S(=O)(=O)N2CCCC2)ccc(Cl)c1Cl,3.3,16,x,x,2,-4,2912
O=C(CCCCn1c(=O)[nH]c2ccccc2c1=O)NCCC1=CCCCC1,5.4,-15,10,12,-7,-6,9572
Cc1cccc(OCc2nnc(SCC(=O)N3CCN(c4ccccc4)CC3)o2)c1C,5.3,-34,5,2,7,-1,u
CCOC(=O)C1CCN(C(=O)c2ccccc2NC(=O)C2=C(C)OCCS2)CC1,1.2,-16,-2,9,6,4,4938
Cc1ccc(C)c(N2CCN(c3ncccc3[N+](=O)[O-])CC2)c1,4.4,x,2,-4,7,37,3964
COc1ccc(C2OC(=O)CC2C(=O)NCc2ccc(C)cc2)cc1OC (centres undefined),1.7,-49,7,-8,-1,3,2618
COc1ccc(OCC(=O)Nc2ccc3c(c2)nc(CN2CCN(C(C)=O)CC2)n3C)cc1,1.0,-18,11,-1,4,-1,4279
Cc1ccc(-c2nc3c(c(SCC(=O)N4CCOCC4)n2)Cc2c(CO)cnc(C)c2O3)cc1,9.9,-5,1,-2,-5,-12,5622
OCCOCCn1c(CCNc2nc(-c3ccc(Cl)cc3)cs2)nc2cc(Cl)c(Cl)cc21,-0.4,-5,18,9,-9,18,4100
CCOc1ccc(C(=O)OCC(=O)Nc2ccc(SC(F)F)cc2)cc1OCC,-1.5,-3,9,4,-6,11,2071
CC1(C)C(=S)N(Cc2ccccc2)c2ccccc21,-3.8,-31,15,1,9,86*,3719
CC(C)c1ccc(C(C(=O)NC2CCCC2)N(C(=O)CNC(=O)c2ccco2)c2cccnc2)cc1 (centres undefined),-0.2,-15,x,x,-6,1,5260
COC(=O)c1ccc(-c2nc3cc(N)ccc3o2)cc1,3.6,35,-3,7,6,-11,3315
COc1ccc(NC(=O)CN(C)CC(=O)N2CCCCCC2)cc1,0.5,-6,7,5,x,1,u
CCn1cc[n+](C)c1P(c1ccccc1)c1ccccc1,1.2,-19,-1,-5,-5,5,2498
Nc1c(C(=O)CSc2nnc(Cc3ccccc3)o2)c(=O)[nH]c(=O)n1C1CC1,2.7,-19,7,0,x,5,9367
CN(CC(=O)Nc1cccc(F)c1)C(=O)c1ccc(OCc2cn3ccccc3n2)cc1,1.3,-58,4,9,x,1,4039
Cc1ccc(Nc2nnc(SCc3cc(=O)n4cc(C)ccc4n3)s2)cc1,3.8,-3,2,11,-1,3,2159
C/C(C=NNC(=O)Cn1nc(C)cc1C)=C/c1ccc(C(C)C)cc1,-4.4,x,2,4,x,-19,x
Cc1ccc(S(C)(=O)=O)cc1C(=O)Nc1ccc(S(=O)(=O)Nc2nccs2)cc1,4.4,-9,10,10,x,4,4132
COc1ccc(C=NNc2cc(N3CCCC3)nc(N3CCCC3)n2)cc1,3.9,x,-25,9,x,-14,x
CCOc1ccc(-n2c(N)c(-c3nc4ccccc4n3C)c3nc4ccccc4nc32)cc1,1.4,-15,9,-1,3,-9,3143
CCOC(=O)/C(C#N)=C(\O)c1ccc(NC(=O)c2ccc([N+](=O)[O-])cc2)cc1,5.5,x,9,8,-6,7,4542
Cc1cccc(NS(=O)(=O)c2cccc(C(=O)NCCCN3CCCC3=O)c2)c1,3.6,-2,8,11,9,2,5788
CC(C)C(=O)Nc1nnc(SCC(=O)NC2CC2)s1,4.5,7,15,14,-5,10,3456
CCOC(=O)c1c(C)[nH]c(C)c1C(=O)COC(=O)Cc1ccc(OC)c(OC)c1,-0.8,5,9,8,x,-7,2996
O=C(CCc1ccccc1)Nc1cccnc1,2.6,-23,-1,5,8,1,4007
COc1ccc(-c2cc(C(=O)N(C)Cc3ccccc3)c3ccccc3n2)cc1,2.7,-43,7,-2,2,52,3261
CCc1noc(C)c1C(=O)NNC(=O)COc1cc(C)ccc1C,3.0,-2,-13,-1,x,3,8667
Cc1ccc(C(=O)c2c(NC(=O)c3ccccc3C)sc(C)c2C)cc1,19,-27,1,2,4,-5,9168
CC1=C(C(=O)Nc2ccccn2)C(c2ccc(N(C)C)cc2)n2ncnc2N1 (centres undefined),-1.6,-26,5,-2,-8,-1,12829
CC(=O)N1CCC(N(CCN2CCOCC2)C(=S)Nc2ccc(C)c(C)c2)CC1,1.3,-30,10,0,5,1,5002
CC1=C(C)CC(C(=O)c2ccc(C)cc2)C(C(=O)O)C1 (centres undefined),7.2,-29,12,2,-12,0,7208
COc1ccc(C=NNC(=O)CC(=O)NC2CCCCC2)cc1,3.4,x,7,16,x,-5,x
CN(C)CCNC(=O)CNC(=S)N(CCCN1CCOCC1)Cc1cccs1,-0.7,-19,-4,6,9,3,3960
CCCCN(C)S(=O)(=O)c1cc(Br)cc2c1N(C(=O)C1CC1)CC2,9.0,-9,5,-5,2,-4,4072
Cc1cc(C)cc(Oc2ccc(-c3nnc(-c4ccccc4)o3)cc2[N+](=O)[O-])c1,-0.3,-43,4,6,1,0,2436
CCOc1ccc(NC(=O)c2ccc(NC(=O)c3ccccc3Br)cc2)cc1,1.9,-3,11,3,x,5,5757
Fc1cccc(-n2ncc(-c3nnnn3-c3ccccc3)c2C(F)(F)F)c1,3.0,-3,-6,-11,-5,-5,u
CC(/C=C/c1ccccc1)=N\NC(=O)c1ccncc1,x,-10,x,x,-1,x,13069
Cc1cc(C)nc(SCC(=O)N/N=C\c2sccc2C)n1,x,-6,x,x,-2,x,10494
c1ccc(-c2csc3ncnc(NCCCN4CCOCC4)c23)cc1,-11,-24,2,13,-4,-8,2740
Cc1ccnc(NS(=O)(=O)c2ccc(NC(=O)C3C4C=CC(C4)C3C(=O)O)cc2)n1 (centres undefined),0.3,22,12,-2,5,1,4120
CCC(C)C1=CC(=Nc2c(C)n(C)n(-c3ccccc3)c2=O)C=C(C(C)CC)C1=O (centres undefined),5.6,-26,15,-15,2,20,2378
O=C(Cc1ccccc1)NN=Cc1ccc(S(=O)(=O)O)o1,2.2,x,4,-2,x,6,x
COc1ccc(C(C(=O)NCC2CCCO2)N(C(=O)CNC(=O)c2cccs2)c2ccc(C(C)=O)cc2)cc1OC (centres undefined),2.9,-22,13,0,4,-3,3973
CN(C)CCSc1nc(-c2ccccc2)nc2c1COC(C)(C)C2,0.8,-30,6,1,3,3,10992
O=C1CNC(=O)N1CC(=O)N1CCCc2ccccc21,1.7,-30,3,6,0,-1,20063*
CC(=O)c1cccc(CN2CCN(CCc3ccccc3)C(CCO)C2)c1 (centres undefined),7.2,-28,12,0,-3,5,4354
COCCCNC(=S)NC1CCCCC1,6.2,-28,-3,3,-29,12,1951
O=C(CNC(=O)c1ccc(S(=O)(=O)N2CCCC2)cc1)N/N=C/c1ccc(Cl)cc1Cl,x,-5,x,x,-1,x,7634
O=C(CN1CCN(S(=O)(=O)N2CCOCC2)CC1)Nc1cc(Cl)ccc1Cl,3.9,-12,8,-1,-3,12,3261
# Carrying on:
SMILES,Sa RN4220 lethal,PrP 5UTR inh,Mtb hypoxia rep,Mtb hypoxia rep growth,BJeLR lethal,Sa ugtP lethal,Bead autofluor
Cc1cc(N2CCN(C)CC2)ccc1NC(=O)c1ccc(-c2ccc(Cl)cc2)o1,-3.2,12,4,10,6,1,u
COc1cccc(C(=O)Nc2ccc3[nH]ncc3c2)c1,0.6,-27,6,-6,10,9,2931
COCCCN1CN(S(=O)(=O)c2ccc(C)cc2C)c2nc3ccccc3nc21,2.2,-8,1,-3,0,7,4713
NC(=S)Nc1cccc2cn[nH]c12,2.1,-17,3,5,-5,4,4423
Cc1onc(C(=O)N2CCC(C(N)=O)CC2)c1-c1ccccc1Cl,-1.5,-28,x,x,12,5,3599
COc1ccc(OC)c(NC(=O)c2cc(-c3c(C)cc(C)cc3O)n[nH]2)c1,1.6,-9,-10,3,2,-6,3735
NC1=NN=C(N2N=C(c3ccco3)CC2(O)C(F)(F)F)n2ncnc2C1 (centres undefined),-1.4,-13,3,-2,2,2,3281
Cc1cc(=O)oc2c(C)c(OCC(=O)NCCN3CCOCC3)ccc12,3.6,-19,3,8,-5,11,5225
CSc1nc2ccccc2c(=O)n1N,4.5,-5,15,5,-3,10,10853
CC1CCCCC1NC(=O)C1CCN(C(=O)NC2CCCCC2)CC1 (centres undefined),-0.5,-20,-2,5,-15,-5,u
Cc1[nH]c(=O)[nH]c(=O)c1CSCC(=O)OCC(=O)c1ccc(Br)cc1,6.1,-37,1,0,-2,0,4492
OC1CCCN(Cc2ccccc2)C1 (centres undefined),0.6,-14,3,-1,0,-2,7008
O=C(CNCCN1CCOCC1)Nc1ccccc1Sc1ccccc1,7.3,-22,5,1,-7,7,2611
COc1ccccc1N1CCN(C(=O)c2cc3cc(Cl)ccc3[nH]2)CC1,-3.9,-13,-11,-6,10,-22,3504
CNNC(=S)Nc1ccc(Cl)cc1,2.0,-26,4,11,0,4,4083
COC(=O)c1sc(-c2ccc(Cl)cc2)cc1NC(=O)COCC(=O)O,4.5,-23,-3,-5,-4,4,12353
COc1ccc(NC(=O)CCc2nnc3ccc(N4CCC5(CC4)OCCO5)nn23)cc1,0.4,-1,1,4,-5,5,4036
Cc1ccc(C(=O)N[C@H](C(=O)OCc2cc(=O)oc3cc(C)ccc23)C(C)C)cc1,4.5,-20,1,-1,12,6,2249
CCOC(=O)CSc1nc2c(c(-c3ccc(C)o3)c1C#N)CCCC2,8.1,-34,7,-1,-10,21,23315*
Cc1cc(C)c(S(=O)(=O)c2ccccc2)c(OC(=O)c2c(F)cccc2Cl)n1,-1.0,-8,x,x,7,-2,x
Cc1ccc(C)c(N2CCN(C(=O)CCC(=O)Nc3nnc(C(F)(F)F)s3)CC2)c1,8.2,-19,-6,1,-4,-3,5615
CCOCC(=O)Nc1cc(C)on1,1.0,-11,-2,1,-1,4,3256
COc1ccccc1-c1nnc(SCC(=O)O)n1-c1ccccc1,x,11,x,x,3,x,4529
CSCC(=O)NC1CCCN(C2Cc3ccccc3C2)C1 (centres undefined),5.3,-37,18,7,-3,9,4360
O=C(CCCOc1ccccc1)NC1CCCc2ccccc21 (centres undefined),-2.2,-16,-7,7,-3,-4,2573
CN1CC(C(=O)c2ccc(Cl)cc2)C(c2ccc(N(C)C)cc2)C1 (centres undefined),7.6,-2,7,12,4,-13,3540

# Part of the list above in order of molecular weight, ascending.
SMILES,Sa RN4220 lethal,PrP 5UTR inh,Mtb hypoxia rep,Mtb hypoxia rep growth,BJeLR lethal,Sa ugtP lethal,Bead autofluor
O=C(CCCOc1ccccc1)NC1CCCc2ccccc21 (centres undefined),-2.2,-16,-7,7,-3,-4,2573
COc1ccccc1-c1nnc(SCC(=O)O)n1-c1ccccc1,x,11,x,x,3,x,4529
CN1CC(C(=O)c2ccc(Cl)cc2)C(c2ccc(N(C)C)cc2)C1 (centres undefined),7.6,-2,7,12,4,-13,3540

# Some of the entries above in another layout:
Cc1cc(C)c(S(=O)(=O)c2ccccc2)c(OC(=O)c2c(F)cccc2Cl)n1
  Sa RN4220 lethal: -1.0
  PrP 5UTR inh: -8
  Mtb hypoxia rep: x
  Mtb hypoxia rep growth: x
  BJeLR lethal: 7
  Sa ugtP lethal: -2
  Bead autofluor: x
Cc1ccc(C(=O)N[C@H](C(=O)OCc2cc(=O)oc3cc(C)ccc23)C(C)C)cc1
  Sa RN4220 lethal: 4.5
  PrP 5UTR inh: -20
  Mtb hypoxia rep: 1
  Mtb hypoxia rep growth: -1
  BJeLR lethal: 12
  Sa ugtP lethal: 6
  Bead autofluor: 2249
